# Source: PubChem BioAssay
# PABP FP inh – PABP poly(A) RNA binding inhibitors, primary screen, biochemical, fluorescence polarization, uHTS; inhibition, % at 35 µM; actives 1% (n = 290,000); AID 2014, 2009;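 active = 50% or more with normal probe brightness, or confirmed in later tests; inconclusive = above 50% with abnormal brightness, or retests that disagree; inactive = below 50% or failed in later tests; about a fifth of its hits are not listed in these tables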;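 also: calls also rest on retests at 20 µM and on dose response follow-up; controls were probe without protein and protein plus probe with vehicle; some compounds called inactive have numbers as strong as hits; many hits fall short of the cut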
# Target sequence (P11940 whole entry, looked up): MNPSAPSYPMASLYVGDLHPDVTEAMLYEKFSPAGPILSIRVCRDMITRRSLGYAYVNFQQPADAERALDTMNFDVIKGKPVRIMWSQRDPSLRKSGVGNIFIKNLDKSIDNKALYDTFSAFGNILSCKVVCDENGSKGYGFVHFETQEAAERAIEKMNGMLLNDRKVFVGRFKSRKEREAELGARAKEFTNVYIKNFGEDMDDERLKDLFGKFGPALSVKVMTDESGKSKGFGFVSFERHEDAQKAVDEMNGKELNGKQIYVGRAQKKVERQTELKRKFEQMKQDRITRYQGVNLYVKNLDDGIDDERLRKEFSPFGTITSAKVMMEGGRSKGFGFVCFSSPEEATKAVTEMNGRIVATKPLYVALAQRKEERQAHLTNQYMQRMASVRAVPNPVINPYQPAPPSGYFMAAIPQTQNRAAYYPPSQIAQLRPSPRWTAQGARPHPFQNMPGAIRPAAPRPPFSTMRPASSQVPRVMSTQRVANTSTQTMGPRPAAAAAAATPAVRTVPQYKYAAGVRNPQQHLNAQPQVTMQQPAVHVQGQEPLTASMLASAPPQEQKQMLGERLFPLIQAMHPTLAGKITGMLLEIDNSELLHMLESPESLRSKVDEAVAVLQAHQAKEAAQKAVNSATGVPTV
# MT1-MMP act inh – blockers of MT1-MMP proenzyme processing, primary screen, HT1080 RFP-PRO-GFP cells, GFP/RFP fluorescence. GFP/RFP ratio fluorescence, overnight; percent of plate control window, DMSO zero. GFP/RFP ratio change, % at 20 µM. actives 0.061% (n = 360,000);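 active = GFP/RFP ratio change of at least 30% with cell ATP level not reduced by more than half and red fluorescence within 50% of control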; also: strong numbers were not always called active
#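 Assay system: HT1080 cells carrying an RFP-PRO-GFP reporter | Dosing: Single dose of 20 µM compound, 1% DMSO final | Incubation: Cells overnight before dosing, compound overnight, 37 °C, 5% CO2 | Evaluation: GFP/RFP fluorescence ratio | Control set: DMSO and RFP-L50D-GFP cell wells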
# eIF4H FP inh – human eIF4H binding inhibitors, primary screen, translation initiation inhibitor project, biochemical, uHTS, fluorescence polarization. Eukaryotic translation initiation factor 4H (Homo sapiens), Q15056. eIF4H fluorescence polarization binding assay. actives 0.94% (n = 290,000). inhibition, % at 35 µM. AID 2012, 2009;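 active = 50% or more with normal probe brightness, or confirmed in later tests; inconclusive = above 50% with abnormal brightness, or retests that disagree; inactive = below 50% or failed in later tests; about a fifth of its hits are not listed in these tables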;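 also: calls also rest on retests at 20 µM and on dose response follow-up; 0% = protein and probe with vehicle and 100% = probe without protein; strong numbers were not always called active; many hits fall short of the cut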
# Rce1 inhib – yeast Rce1p protease inhibitors, primary screen, biochemical, fluorescence, cell-free homogeneous | yeast membranes, quenched prenylated peptide cleavage fluorescence | calls only | actives 0.27% (n = 290,000) | AID 2563, 2010;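 active = fall in fluorescence gain of 50% or more versus controls, with final raw signal at or below 3038400; inconclusive = same 50% fall but final raw signal above 3038400; inactive = fall in fluorescence gain under 50%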;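 also: plate controls were neutral control wells for no effect and wells lacking membranes for full effect; tested at 10 µM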
# Env fusion inh – inhibitors of HIV-1 Env-driven cell-cell fusion, primary screen, HeLa-JRFL effector, CEM21 target cells, luciferase | inhibition, % at 12.3 µM | actives 1.1% (n = 360,000) | AID 651610, 2012;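 active = mean replicate inhibition score of at least 50 and every replicate individually at or above 50; inconclusive = only one of the two criteria met; inactive = mean below 50 and not all replicates reaching 50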;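 also: 0% = plate neutral controls and 100% = maraviroc near 300 nM; one replicate is shown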
# UUG fidelity – modulators of yeast start codon fidelity, primary screen, whole organism, S. cerevisiae, single point, plate reader; AID 602363, 2012; activity score, % at 18.7 µM; actives 0.13% (n = 350,000); S. cerevisiae UUG-firefly luciferase reporter, luminescence/redox ratio;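 active = replicate mean at a twofold rise or more, about +100% in these data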;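 also: firefly luciferase made from a UUG start codon reports start codon fidelity; reporter light over untreated wells divided by growth signal over untreated wells; some hits fall short of that in this replicate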
# CSC inhib – cancer stem cell viability inhibitors, primary screen, luminescence | cancer stem cell-like cells viability | actives 1.1% (n = 300,000) | inhibition, % at 7.5 µM | AID 2717, 2010;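 active = mean at 75% or more and at least half the replicates too; inconclusive = mean and replicates disagree; tested in HMLE shEcad cells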;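 also: 0% = median of negative and 100% = median of positive control wells; the first replicate is given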
# eIF4H FP inh retest – also measured in eIF4H FP inh; calls as there; inhibition, %; compound at 20 µM; confirmation average;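 mean of two retest wells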
# PABP FP inh retest – recorded beside PABP FP inh, whose call it bears; inhibition, %; compound at 20 µM; confirmation repeats;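 mean of two retest wells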
# MT1-MMP act inh RFP – recorded beside MT1-MMP act inh, whose call it bears; RFP signal change, %; measured here: RFP expression control read;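 0 = vehicle wells; hits needed this value within 50% of zero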
# An asterisk follows results filed as active; i = inactive; ? = inconclusive; . = no result given. These rows are one share of the data; count on the stated rates, not on these rows.
SMILES,PABP FP inh,MT1-MMP act inh,MT1-MMP act inh RFP,eIF4H FP inh,Rce1 inhib,Env fusion inh,UUG fidelity,CSC inhib,others
CC(C)CC(c1nnnn1CC1CCCO1)N1CCN(C2CCCC2)CC1 (stereo not given),95.1,1.7,3.8,-3.1,i,.,-8.8,.,eIF4H FP inh retest=-0.7;PABP FP inh retest=4.8
Cc1nn(-c2ccccc2)c(Cl)c1C(=O)NC1CCCCC1,0.3,-2.9,1.3,-7.4,i,6.5,.,-4.4,
O=C(CCC1CCCN(C(=O)c2cc(F)ccc2F)C1)N1CCN(c2ccccn2)CC1 (stereo not given),.,-1.4,-8.1,.,.,12.3,-17.5,.,
COc1ccc(S(=O)(=O)/N=C2\C=C(NS(=O)(=O)c3ccccc3)C(=O)c3ccccc32)cc1,23.9,14.5,13.5,7.9,i,28.2,-1.7,34.4,
Cc1sc(=NC(=O)c2ccco2)n(C)c1-c1ccc(Cl)cc1,0.0,5.2,-0.9,2.4,i,.,.,3.2,
Cn1c(N)c(Sc2ccc(F)cc2)c(=O)n(C)c1=O,2.0,1.1,3.3,4.1,i,14.5,.,8.4,
O=C(NCC1COc2ccccc2O1)C1CCN(S(=O)(=O)c2cccc3nsnc23)CC1 (stereo not given),0.6,0.8,-0.5,-6.3,i,.,-17.8,-0.4,
COc1ccc(C(=O)NCCn2cc(SCC(=O)NCC3CCCO3)c3ccccc32)cc1 (stereo not given),-3.0,-3.3,-5.2,-2.4,i,-8.3,-28.8,-3.2,
O=C(c1ccccc1)C1CCN(C(=O)c2ccco2)CC1,-4.4,-0.5,0.8,-12.2,i,8.8,-8.5,-5.2,
CC(C)Oc1ccc(C(=O)OCC(=O)NCCNC(=O)COC(=O)c2ccc(OC(C)C)cc2)cc1,-2.2,2.3,4.9,0.8,i,5.6,-17.8,-13.7,
CCCc1nnc(NC(=O)c2nc(S(=O)(=O)Cc3cccc(C)c3)ncc2Cl)s1,.,-1.2,-3.5,.,i,-5.3,-5.3,108.0*,
Cc1ccccc1C(=O)c1c[nH]c(C(=O)N=CN(C)C)c1,-4.4,-2.5,0.3,2.5,i,-0.4,.,1.5,
Cc1cc(C)n(CC(C)NC(=O)c2cc(COc3ccc(F)c(F)c3)on2)n1 (stereo not given),6.7,-4.2,-1.1,-8.2,i,-22.6,-11.5,.,
CC(C)C(NCc1c(Cl)cccc1Cl)C(=O)O (stereo not given),-7.9,-0.3,-1.1,-2.3,i,.,-15.7,-5.5,
COc1ccc(NS(=O)(=O)c2cc(C(=O)N3CCN(C/C=C/c4ccccc4)CC3)ccc2C)cc1,.,-3.8,-11.7,.,i,22.6,-16.3,12.8,
CO/N=C/C(C#N)=C/c1ccc(OC)cc1,-18.4,4.3,1.1,-10.4,i,-13.5,.,-11.7,
O=C(Cn1c(S(=O)(=O)Cc2ccccc2)nc2ccccc21)N1CCCCC1,-10.9,-5.0,-0.5,-4.7,i,22.4,-16.1,2.7,
CCCSc1nnc2n(-c3ccccc3OC)c(=O)c3c4c(sc3n12)CCC4,21.2,2.7,0.2,5.8,i,.,-3.1,2.2,
CC(C)CNC(=O)C(=O)N/N=C/c1cccs1,-2.6,7.8,10.2,-3.1,i,-50.0,-7.3,-11.0,
COc1ccc(C(=O)N2CCOCC2)cc1Br,1.3,0.4,-4.5,-4.6,i,-4.3,-4.7,6.1,
Cc1cc(=O)c(C(=O)Nc2cccc(C(=O)NC3CC3)c2)nn1-c1ccccc1,.,5.4,2.6,.,.,8.7,-13.1,.,
O=C(Nc1ccc(Cl)cn1)c1cccc(S(=O)(=O)N2CCCCCC2)c1,.,3.8,-7.5,.,.,-9.8,-3.8,.,
CCN(CC)S(=O)(=O)c1ccc2c(c1)c(=O)c(C(=O)NCCN(C)CCc1ccccc1)cn2C,13.6,-0.4,4.9,1.6,i,12.1,9.6,-8.2,
COc1ccc(CC(N)c2csc(NC(=O)CCc3ccccc3)n2)cc1 (stereo not given),.,-7.1,-15.4,.,.,14.7,-11.2,.,
Fc1ccc(CN2CCC(Cc3ccccc3)CC2)cc1F,6.5,4.0,2.9,12.0,i,-24.1,-3.9,7.0,
CCN(CC)CCNC(=O)c1cc2c(-c3cccc(OC)c3)nn(C)c2s1,9.3,5.2,4.6,2.3,i,-6.3,.,9.2,
C[C@H](C(=O)CC(=O)OC(C)(C)C)[C@H](O)c1ccc(C(F)(F)F)cc1,-7.3,-0.4,-1.5,4.7,i,.,-9.5,.,
CCOC(=O)C1=C(C)N(C)C(C)=C(C(=O)OCC)C1c1ccccn1,8.5,13.5,5.3,4.2,i,3.1,.,0.1,
COc1ccccc1C(=O)Nc1nnc(S(=O)(=O)N2CCN(c3ccc(F)cc3)CC2)s1,-10.4,2.5,0.3,-7.7,i,3.1,-9.9,10.4,
CCn1c(Cc2c(C)[nH]c3ccccc23)nnc1SCC(=O)NCc1ccccc1,-13.1,2.1,3.2,2.2,i,3.6,4.1,-18.4,
CC1CN(S(=O)(=O)c2ccc(C(=O)Nc3nnc(-c4ccccn4)o3)cc2)CC(C)O1 (stereo not given),17.4,3.2,5.1,2.7,i,-5.7,-34.0,-6.3,
O=C(NC1CCCC1)C1CCN(C(=O)c2ccccc2Cl)CC1,-4.7,-3.6,-1.2,0.5,i,-1.8,6.4,-8.6,
CC1CC(C)CN(S(=O)(=O)c2cc3c(cc2Cl)NC(=O)CO3)C1 (stereo not given),-12.6,3.4,0.6,-16.4,i,-5.5,4.2,-6.2,
O=C(CCCCCn1c(=S)[nH]c2cc3c(cc2c1=O)OCO3)N1CCN(C(=O)c2ccco2)CC1,-0.1,2.8,2.9,3.8,i,-5.5,-5.9,-8.9,
CN(Cc1ccccc1F)C(=O)c1ccc(Oc2ccccc2)cc1,6.2,-0.8,2.5,-3.4,i,0.1,-4.0,-7.1,
CC1(Cc2cccc(C(F)(F)F)c2)C(=O)Nc2c(Cl)cccc21 (stereo not given),.,-1.9,-3.7,.,.,42.0,-24.4,.,
O=c1[nH]ncn1-c1cccc(C(F)(F)F)c1,32.2,5.1,6.8,58.8*,i,-286.3,-16.1,-11.9,eIF4H FP inh retest=79.2*;PABP FP inh retest=38.3
O=C(Nc1ccc(Cc2ccncc2)cc1)c1ccc(N2CCOCC2)c([N+](=O)[O-])c1,-4.4,8.9,-0.2,-2.5,i,-19.6,-0.4,11.2,
COc1cc(/C=N/Nc2cc(C)nc(NS(=O)(=O)c3ccccc3)n2)ccc1O,2.7,8.3,3.7,-7.5,i,-8.8,-14.6,2.4,
COC(=O)CSc1nsc(SCC(=O)OC)c1C#N,-1.0,-1.8,0.4,-8.0,i,.,-13.4,28.2,
COc1cc([N+](=O)[O-])ccc1NC(=O)CCCOc1cccc(C)c1C,-6.3,1.3,0.3,-5.0,i,-12.5,-0.5,-5.9,
COC(=O)Cc1c(C)c2ccc(OCC(=O)N(C)C3CCS(=O)(=O)C3)cc2oc1=O (stereo not given),-0.8,0.4,0.1,-5.0,?,5.9,-15.9,10.6,
Cc1c(C(=O)Nc2cccc3cccnc23)oc2ccccc12,2.3,7.4,-0.4,4.1,i,.,-9.5,-7.6,
CCc1cc2c(=O)n(CC)c(SC(C)C(=O)Nc3c(C)n(C)n(-c4ccccc4)c3=O)nc2s1 (stereo not given),-6.8,-2.0,-0.4,1.8,i,.,.,-20.7,
Cc1c(CCC(=O)O)c(=O)oc2cc3oc4c(c3cc12)CCCC4,10.3,4.6,2.1,-7.1,i,32.6,.,-19.5,
Cc1cc(OCCCC(=O)NC2=NCCS2)ccc1Cl,-7.2,-0.1,-3.1,-3.5,i,-19.3,-9.9,.,
O=C(O)c1cc(-c2ccc3c(c2)OCO3)nc2ccccc12,18.8,2.6,5.0,-9.6,i,-117.6,-5.1,-10.6,
Cc1c(NC(=O)COC(=O)C2(c3ccc(F)cc3)CCCC2)c(=O)n(-c2ccccc2)n1C,1.0,4.2,-2.2,-8.4,i,12.3,.,0.8,
CCN(C(=O)COC(=O)c1ccc2c(c1)OCO2)c1ccccc1,.,3.2,2.4,.,.,-23.9,-14.4,8.0,
CCN(CC(=O)Nc1cc(Cl)ccc1C)C(=O)CN1C(=O)NC2(CCCC2)C1=O,.,1.0,3.2,.,i,7.6,10.1,-8.9,

# By substructure, the compounds so far containing a cyano group.
SMILES,PABP FP inh,MT1-MMP act inh,MT1-MMP act inh RFP,eIF4H FP inh,Rce1 inhib,Env fusion inh,UUG fidelity,CSC inhib,others
CO/N=C/C(C#N)=C/c1ccc(OC)cc1,-18.4,4.3,1.1,-10.4,i,-13.5,.,-11.7,
COC(=O)CSc1nsc(SCC(=O)OC)c1C#N,-1.0,-1.8,0.4,-8.0,i,.,-13.4,28.2,

# Next section.
SMILES,PABP FP inh,MT1-MMP act inh,MT1-MMP act inh RFP,eIF4H FP inh,Rce1 inhib,Env fusion inh,UUG fidelity,CSC inhib,others
Cc1ccc(S(=O)(=O)NCC(=O)OC(C)C(=O)c2ccccc2)cc1 (stereo not given),.,3.7,3.4,.,i,0.6,-10.5,-10.8,
COc1cccc2c(=O)n(CC(=O)Nc3ccccc3)ccc12,3.3,-1.9,-0.1,-4.1,i,-7.4,-8.7,-3.9,
CCCN1C(=O)c2ccc(C(=O)Nc3cc(C)ccc3O)cc2C1=O,0.4,9.0,2.3,-2.5,i,-27.1,-23.3,4.0,
CC(C)/C(=N\NC(=O)Nc1ccccc1)c1ccccc1,-8.5,5.3,2.6,3.5,i,-9.9,-8.0,.,
CCOc1cc(C(=S)N2CCOCC2)cc(Br)c1OS(=O)(=O)c1ccccc1,11.2,-0.4,-9.9,-2.4,i,2.0,-14.2,73.0,
Nn1c(SCC(=O)NCc2ccccc2)nnc1C1CC1,-6.6,-3.9,0.8,-2.1,i,.,-8.8,-3.0,
Cc1cc(C)n(-c2cc(N3CCN(S(=O)(=O)c4ccc5ccccc5c4)CC3)ccc2[N+](=O)[O-])n1,-3.0,-3.7,-10.6,-11.2,i,.,-14.5,-5.0,
CCCCNC(=O)CN(c1ccc(Cl)c(Cl)c1)S(C)(=O)=O,7.8,-4.8,1.0,1.1,i,-23.4,-9.4,-2.2,
Cc1nn2c(NCC(C)C)c3c(nc2c1-c1ccccc1)CCC3,-6.3,1.7,-0.5,0.9,i,.,11.5,12.4,
CS(=O)(=O)Nc1ccccc1C(=O)c1ccccc1,-2.2,-3.6,2.0,11.7,i,-31.4,-7.6,4.0,

# Fetched by structure from the list above:
SMILES,PABP FP inh,MT1-MMP act inh,MT1-MMP act inh RFP,eIF4H FP inh,Rce1 inhib,Env fusion inh,UUG fidelity,CSC inhib,others
Cc1nn(-c2ccccc2)c(Cl)c1C(=O)NC1CCCCC1,0.3,-2.9,1.3,-7.4,i,6.5,.,-4.4,
CC(C)CC(c1nnnn1CC1CCCO1)N1CCN(C2CCCC2)CC1 (stereo not given),95.1,1.7,3.8,-3.1,i,.,-8.8,.,eIF4H FP inh retest=-0.7;PABP FP inh retest=4.8
CCc1cc2c(=O)n(CC)c(SC(C)C(=O)Nc3c(C)n(C)n(-c4ccccc4)c3=O)nc2s1 (stereo not given),-6.8,-2.0,-0.4,1.8,i,.,.,-20.7,
